Screening results as filed in PubChem BioAssay.
CSC inhib: cancer stem cell inhibition; cancer stem cell-like cells viability, luminescence; inhibition, % at 7.5 µM; 300,000 tested, 1.1% active; AID 2717;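 active = mean at 75% or more and at least half the replicates too; inconclusive = mean and replicates disagree; tested in HMLE shEcad cells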;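 also: 0% = median of negative and 100% = median of positive control wells; the first replicate is given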
eIF4H inh: inhibitors of RNA binding by human eIF4H; 290,000 tested, 0.94% active; Q15056; eIF4H fluorescence polarization binding assay; inhibition, % at 35 µM; AID 2012;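 active = 50% or more with normal probe brightness, or confirmed in later tests; inconclusive = above 50% with abnormal brightness, or retests that disagree; inactive = below 50% or failed in later tests; about a fifth of its hits are not listed in these tables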;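 also: calls also rest on retests at 20 µM and on dose response follow-up; 0% = protein and probe with vehicle and 100% = probe without protein; strong numbers were not always called active; many hits fall short of the cut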
Env fusion inh: HIV envelope-mediated fusion inhibition. HeLa-JRFL Env/CEM21 cell fusion, luciferase. inhibition, % at 12.3 µM. 360,000 tested, 1.1% active;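 active = mean replicate inhibition score of at least 50 and every replicate individually at or above 50; inconclusive = only one of the two criteria met; inactive = mean below 50 and not all replicates reaching 50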;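 also: 0% = plate neutral controls and 100% = maraviroc near 300 nM; one replicate is shown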
MT1-MMP act inh: MT1-MMP (human) activation inhibition; GFP/RFP ratio change, % at 20 µM; 360,000 tested, 0.061% active; HT1080 RFP-PRO-GFP cells, GFP/RFP ratio fluorescence, overnight; percent of plate control window, DMSO zero; P50281; AID 651647;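 active = GFP/RFP ratio change of at least 30% with cell ATP level not reduced by more than half and red fluorescence within 50% of control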; also: strong numbers were not always called active
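Assay system: RFP-PRO-GFP reporter HT1080 cells; read-out basis: GFP/RFP fluorescence ratio; benchmarks: DMSO wells and RFP-L50D-GFP cells; doses: 20 µM single dose, 1% DMSO; schedule: overnight cell settling, then overnight compound exposure, 37 °C, 5% CO2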
Rce1 inh: yeast Ras-converting enzyme inhibition | Q03530 | yeast membranes, quenched prenylated peptide cleavage fluorescence | calls only | 290,000 tested, 0.27% active;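 active = fall in fluorescence gain of 50% or more versus controls, with final raw signal at or below 3038400; inconclusive = same 50% fall but final raw signal above 3038400; inactive = fall in fluorescence gain under 50%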;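 also: plate controls were neutral control wells for no effect and wells lacking membranes for full effect; tested at 10 µM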
Target sequence (Q03530 whole entry, looked up): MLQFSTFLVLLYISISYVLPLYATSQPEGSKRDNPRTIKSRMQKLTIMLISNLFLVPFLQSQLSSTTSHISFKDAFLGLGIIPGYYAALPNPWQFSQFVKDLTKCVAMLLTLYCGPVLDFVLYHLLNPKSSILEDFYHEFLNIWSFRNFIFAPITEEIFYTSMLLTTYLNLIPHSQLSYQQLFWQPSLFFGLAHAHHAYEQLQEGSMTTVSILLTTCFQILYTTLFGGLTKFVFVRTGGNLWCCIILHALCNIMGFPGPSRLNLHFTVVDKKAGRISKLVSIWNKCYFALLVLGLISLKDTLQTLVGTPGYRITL
UUG fidelity: yeast start codon fidelity modulation | S. cerevisiae UUG-firefly luciferase reporter, luminescence/redox ratio | activity score, % at 18.7 µM | 350,000 tested, 0.13% active;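 active = replicate mean at a twofold rise or more, about +100% in these data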;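 also: firefly luciferase made from a UUG start codon reports start codon fidelity; reporter light over untreated wells divided by growth signal over untreated wells; some hits fall short of that in this replicate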
PABP FP inh: PABP-poly(A) binding inhibition. P11940. PABP-poly(A) RNA binding, fluorescence polarization. inhibition, % at 35 µM. 290,000 tested, 1% active;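 active = 50% or more with normal probe brightness, or confirmed in later tests; inconclusive = above 50% with abnormal brightness, or retests that disagree; inactive = below 50% or failed in later tests; about a fifth of its hits are not listed in these tables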;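 also: calls also rest on retests at 20 µM and on dose response follow-up; controls were probe without protein and protein plus probe with vehicle; some compounds called inactive have numbers as strong as hits; many hits fall short of the cut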
Target sequence (P11940 whole entry, looked up): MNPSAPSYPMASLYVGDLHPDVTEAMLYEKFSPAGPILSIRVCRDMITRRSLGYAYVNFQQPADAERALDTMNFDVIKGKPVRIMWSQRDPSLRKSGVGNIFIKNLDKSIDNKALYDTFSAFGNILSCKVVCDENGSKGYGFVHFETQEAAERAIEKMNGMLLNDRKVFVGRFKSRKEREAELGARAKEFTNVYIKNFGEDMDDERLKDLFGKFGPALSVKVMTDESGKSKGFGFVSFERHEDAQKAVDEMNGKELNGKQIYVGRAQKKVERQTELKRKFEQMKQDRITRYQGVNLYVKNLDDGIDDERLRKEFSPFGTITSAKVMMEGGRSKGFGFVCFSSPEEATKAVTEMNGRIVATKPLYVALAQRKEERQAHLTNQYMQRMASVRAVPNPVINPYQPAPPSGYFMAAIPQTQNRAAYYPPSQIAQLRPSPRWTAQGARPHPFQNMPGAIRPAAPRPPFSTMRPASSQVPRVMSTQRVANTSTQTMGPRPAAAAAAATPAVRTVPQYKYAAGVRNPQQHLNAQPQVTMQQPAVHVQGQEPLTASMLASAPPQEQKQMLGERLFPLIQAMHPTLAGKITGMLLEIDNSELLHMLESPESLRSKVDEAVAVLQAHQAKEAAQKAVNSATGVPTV
MT1-MMP act inh RFP: also measured in MT1-MMP act inh; calls as there; RFP signal change, %; measured here: RFP expression control read;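 0 = vehicle wells; hits needed this value within 50% of zero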
Starred values were filed as active, the others as inactive; i = inactive; ? = inconclusive; · = not tested or not shown. Not all compounds are listed; count on the stated rates, not on these rows.

canonical_smiles	Rce1 inh	CSC inhib	PABP FP inh	MT1-MMP act inh RFP	eIF4H inh	Env fusion inh	UUG fidelity	MT1-MMP act inh
COc1cccc(-n2c(SCC(N)=O)nnc2-c2c[nH]c3ccccc23)c1	i	2	8	2	-4	-15	-8	2
CCOC(=O)N1CCN(C(=O)c2nn(-c3cc(OC)cc(OC)c3)c(=O)c3ccccc23)CC1	i	-8	-12	·	-2	·	·	·
Cn1c(-c2ccccc2)cnc1NCc1ccc(-c2ccccc2)cc1	i	?	1	-2	-4	6	-13	1
Nc1cnc(Br)cc1Br	i	-10	-5	1	-2	·	-10	-3
COc1ccc(CNC(=O)C[C@H]2C[C@H](C(=O)N3CCCCC3)[C@@]3(CCc4ccccc4)c4[nH]c5ccc(Cl)cc5c4CCN3C2=O)cc1OC	·	·	·	-36	·	29	3	-28
CCOC(=O)c1nnn2c1nc(Nc1cccc(C(F)(F)F)c1)c1ccccc12	i	10	-25	-1	-14	-3	-21	0
Cc1cc(C(=O)CCC(=O)NCc2ccccc2F)c(C)s1	i	2	·	1	·	-7	·	2
Cc1ccccc1NC(=S)N(C)CCc1ccccn1	i	-16	0	9	-1	-27	-19	7
O=C(C1=C[C@H](c2ccc3c(c2)OCO3)C[C@H](OCCCCO)O1)N1CCOCC1	i	5	-5	-2	-6	-7	-9	0
CCCCCNc1nc2sc3c(c2c(=O)n1-c1cccc(Cl)c1)CCN(C)C3	i	23	-1	-11	-10	9	·	-18
O=C(CSc1nnnn1Cc1ccccc1)c1ccc(F)cc1	i	-7	4	3	-8	20	-12	1
COc1ccccc1NC(=O)CSc1nc2ncccc2[nH]1	i	-3	-2	-3	-3	·	-17	15

Compound profiles, as listed above. Values in the order: Rce1 inh, CSC inhib, PABP FP inh, MT1-MMP act inh RFP, eIF4H inh, Env fusion inh, UUG fidelity, MT1-MMP act inh
`Cc1cc(C(=O)CCC(=O)NCc2ccccc2F)c(C)s1` across the screens: i, 2, ·, 1, ·, -7, ·, 2
`CCOC(=O)c1nnn2c1nc(Nc1cccc(C(F)(F)F)c1)c1ccccc12` across the screens: i, 10, -25, -1, -14, -3, -21, 0

Further records
canonical_smiles	Rce1 inh	CSC inhib	PABP FP inh	MT1-MMP act inh RFP	eIF4H inh	Env fusion inh	UUG fidelity	MT1-MMP act inh
COc1cccc(N=Nc2c(C)[nH]n(-c3ccccc3)c2=O)c1	i	3	22	3	-10	-18	-28	6
CCOC(=O)c1c(C)[nH]c(C)c1S(=O)(=O)NCCCN1CCOCC1	i	-13	6	8	-4	-5	·	1
Cc1ccc(NC(=O)c2ocnc2C)cc1Cl	i	-6	0	-1	-8	·	-11	1
COc1ccc(CCNC(=O)Cc2ccsc2)cc1	i	-9	-5	6	-8	3	-10	3
FC(F)(F)c1cc(N2CCNCC2)c2ccccc2n1	i	-6	-3	-3	-2	-6	·	-5
COc1ccccc1C(=O)NNC(=O)c1ccc(NC(=O)CC(C)C)cc1	i	-7	6	1	0	13	·	1
NC(=O)c1ccc(NC(=O)CNC(=O)c2sc3ccccc3c2Cl)cc1	·	-14	·	-3	·	·	-5	-1
CSc1nc(N(C)NC(=O)c2ccc(Cl)cc2)c2ccccc2n1	i	20	-3	-16	-9	·	·	6
O=C1NC(=O)c2cc(Oc3ccc([N+](=O)[O-])cc3)ccc21	i	-9	-1	5	-2	-58	-14	0
O=C(NNc1c(Cl)cc(Cl)cc1Cl)c1n[nH]c(=O)c2ccccc12	i	-10	-8	-2	0	-11	209*	3
COc1cccc(NC(=O)c2ncn[nH]2)c1	i	7	-4	6	-4	3	-10	-2
Cn1cccc1/C=C1\SC(=Nc2ccc(O)cc2)NC1=O	i	61	17	9	-3	i	·	29

Reformatted as labelled records: two of the compounds above
O=C(NNc1c(Cl)cc(Cl)cc1Cl)c1n[nH]c(=O)c2ccccc12
  Rce1 inh: i | CSC inhib: -10 | PABP FP inh: -8 | MT1-MMP act inh RFP: -2 | eIF4H inh: 0 | Env fusion inh: -11 | UUG fidelity: 209* | MT1-MMP act inh: 3
COc1cccc(NC(=O)c2ncn[nH]2)c1
  Rce1 inh: i | CSC inhib: 7 | PABP FP inh: -4 | MT1-MMP act inh RFP: 6 | eIF4H inh: -4 | Env fusion inh: 3 | UUG fidelity: -10 | MT1-MMP act inh: -2

Continued.
canonical_smiles	Rce1 inh	CSC inhib	PABP FP inh	MT1-MMP act inh RFP	eIF4H inh	Env fusion inh	UUG fidelity	MT1-MMP act inh
O=C(NCCN1CCc2ccccc2C1)C1CCN(S(=O)(=O)N2CCC3(CC2)OCCO3)CC1	i	3	9	6	-1	·	·	-2
O=C(CN1C(=O)/C(=C/c2ccccc2F)Sc2ccccc21)NCc1cccnc1	i	-4	0	-7	1	30	·	7
N=C(N)N1CCc2ccccc21	i	0	-4	5	5	-10	·	0
Cc1ccc(Nc2nc3ccccc3s2)cc1	i	8	-1	-2	-8	-101	·	-4
Cn1cc(CNC(=O)c2cc(-c3ccccc3)nc3ccc(Br)cc23)cn1	i	8	16	1	-1	·	·	3
COc1ccc(CCNC(=O)C2CCCN2C(=O)Nc2ccccc2)cc1OC (centres undefined)	i	-4	-9	0	6	5	1	-2
COc1ccccc1CN1CCN(Cc2nc(-c3cccs3)no2)CC1	i	7	3	6	-4	-4	·	3
Cc1cccc(NC(=O)NCCCCc2ccccc2)c1	i	22	23	0	-2	1	-12	1
CCn1nc(CC(C)C)cc1C(=O)N1CCCC(Nc2ccc(F)cc2)C1 (centres undefined)	i	0	6	-2	-6	28	-9	-2
COc1ccccc1-c1cnc2c(Nc3cccc(OC(F)(F)C(F)F)c3)nccn12	·	·	·	-19	·	7	-36	-4
Cc1cc(C)n(-c2ccc(C(=O)OCC(=O)Nc3cc(Cl)ccc3[N+](=O)[O-])cc2)n1	i	-19	8	3	-9	-8	-14	2
COc1ccccc1NC(=O)CN1CCN(c2ccccc2)CC1	i	-12	1	3	1	10	-13	5

A second format for some results above.
O=C(CN1C(=O)/C(=C/c2ccccc2F)Sc2ccccc21)NCc1cccnc1
- Rce1 inh: i
- CSC inhib: -4
- PABP FP inh: 0
- MT1-MMP act inh RFP: -7
- eIF4H inh: 1
- Env fusion inh: 30
- UUG fidelity: ·
- MT1-MMP act inh: 7
N=C(N)N1CCc2ccccc21
- Rce1 inh: i
- CSC inhib: 0
- PABP FP inh: -4
- MT1-MMP act inh RFP: 5
- eIF4H inh: 5
- Env fusion inh: -10
- UUG fidelity: ·
- MT1-MMP act inh: 0
Cc1ccc(Nc2nc3ccccc3s2)cc1
- Rce1 inh: i
- CSC inhib: 8
- PABP FP inh: -1
- MT1-MMP act inh RFP: -2
- eIF4H inh: -8
- Env fusion inh: -101
- UUG fidelity: ·
- MT1-MMP act inh: -4
Cn1cc(CNC(=O)c2cc(-c3ccccc3)nc3ccc(Br)cc23)cn1
- Rce1 inh: i
- CSC inhib: 8
- PABP FP inh: 16
- MT1-MMP act inh RFP: 1
- eIF4H inh: -1
- Env fusion inh: ·
- UUG fidelity: ·
- MT1-MMP act inh: 3

Remaining list, next part
canonical_smiles	Rce1 inh	CSC inhib	PABP FP inh	MT1-MMP act inh RFP	eIF4H inh	Env fusion inh	UUG fidelity	MT1-MMP act inh
O=C(c1ccc(CS(=O)(=O)c2ccc(Br)cc2)o1)N1CCOCC1	i	-15	-2	4	-4	8	-9	-3
Cc1csc(NC(=O)CSc2nc3sc(C)c(C)c3c(=O)[nH]2)n1	i	-4	46	1	32	-29	-11	-4
CN(C)c1cc[n+](CC(=O)Nc2ccccc2C(F)(F)F)cc1	i	-7	-10	4	-11	6	-6	-3
O=C1NC2(CCCc3ccccc32)C(=O)N1Cc1nnc(-c2ccccc2Br)o1 (centres undefined)	i	-14	0	-2	-8	-32	5	-3
O=C(C1CC1)N1N=C(c2ccc(Br)cc2)CC1(O)C(F)(F)F (centres undefined)	i	10	2	0	-11	-7	-5	-2
COc1cc(C(C)=O)ccc1COc1ccc(C(=O)O)cc1OC	i	-10	6	-3	-10	1	·	1
Cc1ccccc1NC1=NC(=S)N(CC(N)=O)C12CCOC(C)(C)C2 (centres undefined)	i	-20	0	1	6	-14	-16	1
O=C(c1cc2ccccc2oc1=O)N1CCSC1c1ccco1 (centres undefined)	i	10	0	-1	-2	·	22	-3
COC(=O)c1ccsc1NC(=O)C1COc2ccccc2O1 (centres undefined)	i	-3	-1	-4	-6	-12	-13	-6
CNC(=O)c1c(NC(=O)c2nc3ccccc3s2)sc2c1CCC2	i	15	19	0	14	·	-17	-3
C=CCn1c(SCC(=O)O)nnc1-c1cccs1	i	-3	3	10	5	-61	-13	5
CCOC(=O)c1c(-c2ccc(C)cc2)csc1NC(=O)/C(C#N)=C/c1ccc(O)c(OC)c1	·	·	-15	8	?	-1	·	-114
O=C(OCC(=O)N1CCN(S(=O)(=O)c2ccc(Cl)cc2)CC1)c1cccc(OC(F)F)c1	i	-1	·	4	·	1	-19	1
COc1ccccc1C(CNC(=O)c1ccc(NS(=O)(=O)c2ccc3c(c2)OCCO3)cc1)N(C)C (centres undefined)	i	-1	·	2	·	·	-13	2
O=C(Nc1cccc(Cl)c1)Nc1ccnc(-c2cccnc2)n1	i	-10	-2	-19	2	-127	·	-15
CCn1c(COc2ccc(=O)n(-c3ccccc3)n2)nnc1SCc1ccccc1C	i	1	-14	-2	-6	-61	15	-2
CCN(CC)CCNC(=O)C1CCC(=O)N(c2ccc(OC)cc2)C1c1ccc(F)cc1 (centres undefined)	·	0	-13	3	-3	-267	-2	-3
O=C1CCCC2=C1C(c1ccc(O)c(O)c1)Nc1ccc3ccccc3c12 (centres undefined)	i	-7	·	-7	·	-1	-10	-7
CCN1C(=NCc2cc(OC)c(OC)c(OC)c2)N[C@@H](c2cccc(C(F)(F)F)c2)C(C(=O)OC)=C1C	·	-5	·	1	·	-16	-16	1
COc1cccc(N2CCN(C(=O)CN(C)S(=O)(=O)c3ccc4c(c3)c(=O)n(C)c(=O)n4C)CC2)c1	i	10	-4	-2	14	16	·	2
CC(C)(C)SCCNC(=O)CSCc1ccc([N+](=O)[O-])cc1	i	·	2	-1	-6	17	-20	2
Nc1ccccc1C(=O)NCc1ccco1	i	-10	-12	3	-11	-1	-25	0
CCOc1ccccc1NC(=O)CSc1nncc2ccccc12	·	-1	5	-3	2	9	-4	-5
O=C(O)c1ccccc1N1C(=O)C2C3CCC(C3)C2C1=O (centres undefined)	i	-6	-4	1	-6	-10	·	0
Cc1ccccc1Nc1nc2ccccc2n1C(C)C	i	-11	13	4	0	-6	·	2
Cc1ccc(NC(=O)CSc2nnc(CNC(=O)c3ccccc3F)o2)cc1	i	-12	7	4	4	-3	-14	2
ClC1(Cl)CC1Cn1c(C2CC2)nc2ccccc21 (centres undefined)	i	1	-12	-2	5	7	·	-4
CCCCNC(=O)C1(C)CCN1C(=O)c1cccc(OC(F)(F)F)c1 (centres undefined)	·	·	·	5	·	-5	-4	1
CC1(C)Oc2ccc(C(=O)N3CCOCC3)cc2N(CC(=O)Nc2ccccc2)C1=O	i	0	5	-2	-1	·	21	-7
COCCCn1c(Cc2ccccc2)nnc1SCC(=O)N1CCCCC1	i	-13	9	2	1	-47	·	7
CCOc1ccc(S(=O)(=O)N2CCCCC2)cc1NC(=O)CN1C(=O)NC(C)(c2ccc(C)cc2)C1=O (centres undefined)	i	-1	·	-9	·	·	·	-12
O=C1CNC(=S)N1Cc1ccc(Cl)cc1	i	·	10	13	-5	7	-16	-2
O=C(c1ccc([N+](=O)[O-])cc1)N1CCSC1c1ccc(Br)cc1 (centres undefined)	i	3	-12	-6	-3	8	·	-6
